Compound activity: PubChem, several laboratories
T cruzi repl: inhibitors of intracellular T. cruzi growth, primary screen, luminescence, NIH3T3 host cells. T. cruzi beta-gal in NIH3T3, 90 h. inhibition, % (concentration not given with the values). hit rate 1.4% among 300,000;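 active = mean inhibition across valid replicates above about 55%, limit read from the data; inconclusive = mean below that limit but half or more replicates reach it; inactive = mean below it, under half of replicates reach it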;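 note: signal also drops with host cell toxicity which is not excluded here; 0% = plate median of DMSO wells and 100% = zero luminescence signal; higher percent means less beta-gal luminescence so fewer parasites; stock transfer was 50 nL into about 50 µL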
Beta cell apopt: inhibitors of cytokine-induced beta cell apoptosis, primary screen, luminescence; INS-1E cytokine-induced death, ATP luminescence, 48 h; percent of positive-control rescue, neutral wells zero; hit rate 0.8% among 300,000; protection from apoptosis, % (concentration not given with the values);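 active = all replicates at 75% or more, or half of them and the mean; inconclusive = half reach 75% but not the mean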;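 note: 0% = cytokine-treated negative control wells and 100% = positive control rescue; higher means more ATP so stronger rescue from cytokine killing; wells of about 40 µL received 100 nL stock; the first replicate is given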
UCH37 inh: inhibitors of human UCH37 deubiquitinase, primary screen, biochemical, Ub-AMC cleavage, fluorescence; purified proteasome/UCH37; inhibition, % (concentration not given with the values); hit rate 0.33% among 330,000; AID 588478, 2011;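 active = mean of two replicates above 20%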;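 note: 0% = compound-free wells with enzyme and 100% = wells lacking proteasome; stock transfer was 100 nL into about 20 µL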
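Signal – fluorescence, ex 355 nm, em 460 nm · System – Proteasome-bound UCH37 · Input – 0.15 nM proteasome as dispensed · Timing – 30 min preincubation with enzyme, 25 min cleavage at room temperature · Read-out basis – percent inhibition of cleavage signal versus uninhibited and no-proteasome wells · Medium – Tris-HCl pH 7.4 with ATP-MgCl2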
Calb FLC: C. albicans growth inhibition with fluconazole, primary screen, CaCi-2 strain, Alamar Blue fluorescence; C. albicans CaCi-2 (fluconazole-resistant clinical isolate) + fluconazole, 48 h; growth inhibition, % (no concentration beside the values); hit rate 0.57% among 300,000; AID 1979, 2009;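 active = most replicates above 75%; inconclusive = exactly half above 75%; inactive = most below 75%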;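 note: all wells also contain fluconazole at 8 µg/ml as a sub-toxic cotreatment; 0% = median of DMSO wells and 100% = median of geldanamycin control wells; wells of about 8 µL received 7.5 nL stock; the first replicate is given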
LANA-H2B inh: blockers of LANA interaction with H2A/H2B – biochemical, FP readout, HTS, primary screen; Protein LANA1 (Human herpesvirus 8 type P (isolate GK18)), Q9QR71; cell-free LANA-H2A/H2B peptide, fluorescence polarization; inhibition, % (test concentration not listed); hit rate 0.6% among 320,000; AID 2629, 2010; in the data active = inhibition mostly above about 10%, no sharp cut-off; inactive = mostly below about 6.7%;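 note: stock transfer was 7.5 nL into about 10 µL; 0% = median of vehicle wells and 100% = median of positive control wells; one replicate is shown; the record names a cut of 25% in any replicate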
Target sequence (Q9QR71 whole entry, looked up): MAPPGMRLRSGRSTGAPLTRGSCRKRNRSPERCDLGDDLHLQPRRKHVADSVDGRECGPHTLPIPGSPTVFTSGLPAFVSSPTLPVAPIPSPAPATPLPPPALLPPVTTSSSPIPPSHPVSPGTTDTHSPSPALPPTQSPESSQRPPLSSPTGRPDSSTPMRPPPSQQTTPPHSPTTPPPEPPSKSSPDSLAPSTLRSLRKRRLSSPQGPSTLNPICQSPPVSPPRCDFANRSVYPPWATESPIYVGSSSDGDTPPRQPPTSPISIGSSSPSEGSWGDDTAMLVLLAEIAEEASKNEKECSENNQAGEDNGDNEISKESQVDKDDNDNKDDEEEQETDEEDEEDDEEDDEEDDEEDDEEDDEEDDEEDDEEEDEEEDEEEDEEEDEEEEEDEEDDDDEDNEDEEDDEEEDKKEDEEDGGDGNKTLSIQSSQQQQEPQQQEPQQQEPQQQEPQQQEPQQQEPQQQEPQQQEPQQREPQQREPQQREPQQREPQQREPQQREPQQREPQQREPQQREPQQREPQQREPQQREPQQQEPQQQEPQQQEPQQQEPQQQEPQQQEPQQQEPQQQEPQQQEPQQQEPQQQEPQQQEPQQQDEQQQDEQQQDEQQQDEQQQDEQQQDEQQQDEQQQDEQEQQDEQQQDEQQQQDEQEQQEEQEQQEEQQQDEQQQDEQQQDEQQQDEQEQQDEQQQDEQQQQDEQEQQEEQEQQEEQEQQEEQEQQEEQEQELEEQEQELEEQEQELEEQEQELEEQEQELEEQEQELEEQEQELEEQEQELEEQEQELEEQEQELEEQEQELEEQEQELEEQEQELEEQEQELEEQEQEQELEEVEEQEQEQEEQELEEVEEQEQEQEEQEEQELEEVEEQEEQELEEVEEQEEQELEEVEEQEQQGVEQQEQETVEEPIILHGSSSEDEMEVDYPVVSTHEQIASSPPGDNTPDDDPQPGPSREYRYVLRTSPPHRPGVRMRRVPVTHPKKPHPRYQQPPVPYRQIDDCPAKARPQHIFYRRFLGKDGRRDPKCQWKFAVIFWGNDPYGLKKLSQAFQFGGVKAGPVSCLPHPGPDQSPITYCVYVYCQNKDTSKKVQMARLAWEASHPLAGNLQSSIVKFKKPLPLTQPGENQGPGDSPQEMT
B2AR ag: beta2AR agonists driving receptor internalization, primary screen, cell-based, FAP fluorogen, flow cytometry; Beta-2 adrenergic receptor (Homo sapiens), P07550; Am2.2-beta2AR cells; reference of the scale not given here; response, % (no concentration beside the values); hit rate 0.43% among 340,000;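 active = response above a set limit, near 3 SD of response in nonfluorescent compounds, cut at about 42% in these data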;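 note: stock transfer was 100 nL into about 11 µL; a reference agonist was the positive control; negative values mostly stem from fluorescent compounds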
A1 inh: caspase 3/7 activation in MEF A1-2A-BIM cells, primary screen, A1 inhibitor project, cell-based, luminescence, HTS | hit rate 0.066% among 330,000 | caspase activation, % (test concentration not listed) | AID 2462, 2010 | Caspase-Glo 3/7 luminescence, 3 h; percent of clofoctol response, vehicle zero;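 active = over half of replicate activation scores above 10%, or exactly half above 10 with the replicate mean above 10; inconclusive = replicate mean below 10 yet half the replicates above 10; inactive = over half of replicates below 10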;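 note: wells of about 30 µL received 50 nL stock; many hits fall short of the cut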
RanGTP-Impb inh: inhibitors of RanGTP-importin-beta interaction, primary screen, biochemical, FRET, CFP-Ran, YFP-importin-beta, homogeneous; AID 2216, 2009; hit rate 1.1% among 300,000; inhibition, % (test concentration not listed); cell-free CFP-Ran/YFP-importin-beta FRET ratio; Ran GTPase (GTP-bound) - importin-beta complex;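 active = most replicates above 15%; inconclusive = exactly half above 15%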;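 note: 0% = DMSO wells and 100% = Ran loaded with GDP instead of GTP; wells of about 40 µL received 100 nL stock; the first replicate is given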
* = called active by the depositor; u = inconclusive; x = no result given. Rows were taken by chance, and some 4.3% of all compounds hit somewhere here.

SMILES | T cruzi repl | Beta cell apopt | UCH37 inh | Calb FLC | LANA-H2B inh | B2AR ag | A1 inh | RanGTP-Impb inh
Cc1cc(N2CCN(C)CC2)ccc1NC(=O)c1c2c(nc3ccccc13)CCN(Cc1ccccc1)C2 | 58* | 99* | 4.3 | 1 | 12 | 51* | 0.5 | -0.8
Cc1ccc(SCC(=O)NCCC2=CCCCC2)cc1 | 31 | 3 | 3.1 | 23 | -0.5 | 1 | 0.3 | u
C=CCn1c(C)c(C(C)=O)cc(NC(=O)c2ccccc2)c1=O | 7 | -1 | 5.3 | 3 | 0.9 | -15 | 0.2 | 8.5
CC1CCC(=NNc2ccc(C(F)(F)F)cc2[N+](=O)[O-])CC1 (stereo not given) | 10 | 1 | 4.4 | -11 | 0.4 | -2 | 0.6 | 0.4
CCC(Oc1ccc(C)cc1)C(=O)Nc1ccc(S(=O)(=O)Nc2cc(C)on2)cc1 (stereo not given) | -18 | -1 | 2.5 | -6 | -1.2 | 3 | -0.4 | 1.9
C=CCn1c(O)c(N=NC(=O)CNC(=O)/C=C/c2ccc(OC)cc2)c2ccccc21 | 13 | -4 | 6.5 | 9 | 1.3 | 18 | 0.4 | 1.7
Cc1cc(=O)oc2cc(OCC3CC(c4ccc(Br)cc4)=NO3)ccc12 (stereo not given) | 47 | -6 | -9.8 | 0 | -0.9 | -17 | 0.1 | 8.3
CCOc1ccc(NC(=O)CCC(=O)N/N=C/c2ccc3c(c2)OCO3)cc1 | 4 | -7 | x | 111* | 10 | -2 | -1.5 | 1.8
COc1ccc(O)c(C(=O)c2cnc3c(c2)c(-c2ccc(F)cc2)c(C#N)c(=O)n3C)c1 | 29 | 14 | 2.3 | -4 | 2.8 | 9 | -0.6 | -1.1
COC(=O)N/N=C/c1ccc(-c2ccc(C)c(Cl)c2)o1 | 6 | -1 | x | 25 | -3.9 | 10 | -0.5 | 1.8
Cc1ccc(C)c(NC(=O)c2ccc(OC(=O)c3ccco3)cc2)c1 | -7 | 3 | 2.1 | -10 | 0.0 | 13 | -0.2 | -2.3
CC(OC(=O)c1cccnc1Cl)C(=O)Nc1ccc(S(N)(=O)=O)cc1 (stereo not given) | -12 | -1 | 1.1 | 0 | 0.8 | 0 | -0.5 | 3.6
NS(=O)(=O)c1cccc(NC(=O)CSc2nc3ccccc3[nH]2)c1 | 3 | -4 | 2.0 | -9 | -2.5 | -2 | 0.8 | 2.3
CCCCn1c(=O)[nH]c(=O)c2c(C(=O)OCC)cc(-c3cccs3)nc21 | 21 | 3 | -483 | 51 | 1.0 | 3 | 0.9 | -6.3
CSc1cccc(NC(=O)Nc2ccccc2)c1 | 10 | -4 | 2.1 | u | -1.6 | 7 | -0.5 | 0.5
CCOC(=O)c1c(C)[nH]c(C(=O)CN(C)CC(=O)Nc2ccccc2Cl)c1C | x | -3 | 3.1 | x | -0.6 | 3 | -0.1 | x
CCOc1ccc(CN2CCN(C(=O)c3ccco3)CC2)cc1 | 16 | -6 | 0.1 | -1 | 6.4 | 2 | -0.2 | -2.9
Cc1ccc(S(=O)Cc2ccc(C(=O)N3CCN(C4CCCCC4)CC3)o2)cc1 (stereo not given) | 31 | -1 | 2.7 | u | 1.3 | -3 | -0.5 | -2.2
Cc1noc(C)c1NC(=O)N(C)C[C@H]1Oc2ccc(NC(=O)CCC(F)(F)F)cc2C(=O)N([C@H](C)CO)C[C@@H]1C | x | 4 | 0.6 | x | 2.0 | -4 | 0.3 | x
O=C(c1ccc2c(c1)OCCO2)N1CCN(c2ncc(C(F)(F)F)cc2Cl)CC1 | 4 | -4 | 4.6 | -5 | x | -11 | -0.1 | -2.7
CC(=O)Nc1cccc2c1C(=O)N(c1ccccc1OC(C)=O)C2=O | 10 | -4 | 4.8 | -3 | 1.8 | -1 | -0.3 | -1.5
CCN(Cc1ccccc1)C(=O)C1CCN(C(=O)Nc2ccccc2)CC1 | -11 | 1 | 5.1 | -3 | -3.3 | -4 | 0.5 | 6.4
O=C(Nc1ccccc1C(=O)NC1CCCCC1)c1ccco1 | -13 | 3 | -1.8 | -4 | -21 | -6 | 0.3 | 0.0
Cc1cccc(NC(=O)Nc2ccncc2)c1 | 65* | 7 | 1.8 | -6 | -2.0 | -8 | -4.4 | -0.8
Cc1ccnc(NC(=S)NC(=O)c2cccs2)c1 | 7 | 1 | 7.0 | 1 | -0.5 | -7 | -0.9 | 0.2
Cc1cc(OC(=O)c2ccccc2Cl)ccc1N1C(=O)CCC1=O | 5 | 2 | 0.7 | 13 | 1.6 | -1 | -1.0 | -0.3
O=C(COC(=O)Cc1ccc(F)cc1)NC(=O)NC1CCCC1 | x | 2 | -0.2 | x | -374 | 6 | -0.4 | x
CCN(CC)CCNC(=O)Cn1nc(Cc2cccnc2)c2ccccc2c1=O | -7 | -7 | 3.1 | -3 | -3.4 | 11 | 0.4 | 3.0
COc1ccccc1C1(CCNS(=O)(=O)c2ccc(C)cc2)CCOC(C(C)C)C1 (stereo not given) | 21 | 4 | 2.1 | 2 | x | 7 | 0.2 | 1.4
O=C(c1ccccc1)c1c[nH]c(C(=O)NCCCn2ccnc2)c1 | -12 | 1 | 2.4 | -3 | -1.9 | 4 | 0.6 | 3.4
CC(=O)N1CCc2cc(S(=O)(=O)N3CCCCC3C)ccc21 (stereo not given) | -3 | -4 | -0.4 | -2 | 1.0 | 0 | -0.4 | -1.2
O=C1CCC(C(=O)N2CCC(CCO)CC2)CN1Cc1ccc(Cl)cc1 (stereo not given) | -7 | -2 | 1.4 | -3 | 1.7 | -3 | 0.8 | 2.4
Cc1ccc(N(C(C)C(=O)NCc2ccncc2)S(C)(=O)=O)cc1C (stereo not given) | 0 | 0 | -1.4 | 2 | 3.1 | -4 | 0.4 | -1.8
O=C1c2ccccc2NC(c2cnc3ccccc3n2)N1O (stereo not given) | -5 | 0 | -2.2 | 104* | -3.8 | 1 | -6.9 | -0.9
CCc1ccc(CN2CCC(C(=O)Nc3cccc(-c4nnc(C)s4)c3)CC2)o1 | 18 | x | 2.9 | 20 | -1.5 | -6 | 0.0 | 4.2
Cc1cccc(N2CCN(C(=O)c3cc4n(n3)C(C(F)(F)F)CC(c3ccco3)N4)CC2)c1C (stereo not given) | 24 | -3 | 2.8 | 9 | 0.0 | 2 | 0.3 | 1.1
O=C(O)CC1(CC(=O)Nc2ccccc2Br)CCCC1 | -21 | 1 | 1.3 | -4 | -1.5 | 9 | -0.3 | 3.2
O=C(CSc1nc2ccccc2c(=O)n1-c1ccccc1)NC(=O)CN1CCCC1=O | -26 | 4 | 4.4 | 0 | -2.4 | 0 | 0.1 | -1.8
Cn1ccnc1C(=O)c1cc(=O)c2ccccc2o1 | 1 | -8 | 8.5 | -24 | -3.0 | -8 | -3.6 | -1.5
CCCCc1cc(=O)oc2cc(OCC(=O)N3CCC(C(=O)O)(c4ccccc4)CC3)ccc12 | -13 | -3 | -41 | 1 | 2.2 | -9 | 1.3 | 4.3
Oc1cccc(C=NCc2ccccc2)c1 | -6 | -3 | 1.6 | -3 | 4.0 | 11 | 1.3 | 4.0
C=CCNC(=O)C(=O)NCC(c1ccc2c(c1)OCO2)N1CCN(c2ccc(F)cc2)CC1 (stereo not given) | 2 | -4 | 5.1 | 0 | 2.0 | 6 | 0.4 | -1.9
O=C1NC2(CCCCC2)C(=O)N1CCS(=O)(=O)Oc1ccc(Br)cc1 | 16 | x | 2.8 | -9 | 2.2 | -5 | 0.9 | -0.7
CC(C)OC(=O)c1c(NC(=O)C2CC=CCC2C(=O)O)sc2c1CCCCC2 (stereo not given) | 11 | -8 | 0.7 | x | -5.3 | -1 | 0.8 | x
Cc1nnc(N/N=C/c2cc([N+](=O)[O-])c(N3CCC(C)CC3)cc2N2CCC(C)CC2)n1N | 46 | 115* | x | -10 | -1.9 | -3 | -1.3 | -2.8
O=C(C[n+]1ccccc1)NNc1ccccc1 | 21 | -3 | x | 11 | 1.7 | -3 | 0.1 | 2.9
CN1C(=O)CC(C(=O)Nc2ccc(F)cc2)SC1=Nc1ccc2c(c1)OCO2 (stereo not given) | 8 | -7 | -0.5 | -16 | 2.0 | -3 | 0.4 | 0.6
C(=N\N1CCN(Cc2ccccc2)CC1)/c1cccnc1 | -2 | 0 | x | 2 | -4.8 | -4 | 0.0 | -1.8

Quoted at random: two entries already listed
SMILES | T cruzi repl | Beta cell apopt | UCH37 inh | Calb FLC | LANA-H2B inh | B2AR ag | A1 inh | RanGTP-Impb inh
C(=N\N1CCN(Cc2ccccc2)CC1)/c1cccnc1 | -2 | 0 | x | 2 | -4.8 | -4 | 0.0 | -1.8
Cc1nnc(N/N=C/c2cc([N+](=O)[O-])c(N3CCC(C)CC3)cc2N2CCC(C)CC2)n1N | 46 | 115* | x | -10 | -1.9 | -3 | -1.3 | -2.8

(next part)
SMILES | T cruzi repl | Beta cell apopt | UCH37 inh | Calb FLC | LANA-H2B inh | B2AR ag | A1 inh | RanGTP-Impb inh
COC(=O)C1=C(C)Nc2c(c(=O)n(C)c(=O)n2C)C1c1ccncc1 (stereo not given) | -3 | 0 | -4.1 | 21 | 2.4 | -4 | 0.2 | 1.1
O=C(O)CN1C(=O)/C(=C\c2cc(Br)ccc2OCc2ccccc2Cl)SC1=S | 15 | 0 | 15 | -10 | 0.5 | 18 | 0.6 | -1.7
O=C(CSc1nnc(-c2ccccc2Cl)o1)Oc1ccc(Br)cc1 | -5 | 0 | x | 6 | -2.1 | 15 | -0.4 | 0.6
O=C(OCCN1CCCC1=O)c1cncc(Br)c1 | -14 | -4 | 3.8 | 9 | 8.5 | 4 | 0.7 | -1.5
Cn1nccc1NC(=O)NC(=O)c1c(Cl)cccc1Cl | -5 | -6 | 0.7 | -8 | 2.2 | -4 | 0.3 | 5.9
Cc1cccc(-n2ncc3c2CCCC3NC(=O)C2=CC(=O)CC(C)(C)O2)c1C (stereo not given) | 3 | x | 3.6 | 0 | -3.4 | -3 | -0.2 | 3.6
CCOC(=O)c1nn(-c2ccccc2C)c(=O)c(C#N)c1C | 14 | -4 | 2.7 | -5 | -1.5 | -2 | -1.9 | 0.8
N#CC(C#N)=c1ccc2c(c1)NC1(CCCCC1)N=2 | 11 | 20 | x | 69 | -4.5 | 6 | -0.7 | 6.6
CCOC(=O)CNC(=O)c1nn(-c2cccc(OC)c2)c(=O)c2ccccc12 | x | -3 | 1.6 | x | -5.2 | 2 | -0.5 | x
COc1cc(/C=N/Nc2ccc(S(N)(=O)=O)cc2[N+](=O)[O-])cc(OC)c1O | -10 | 7 | x | 6 | -0.2 | 3 | 0.1 | -2.4
Cn1c2c(c3ccccc31)CCN=C2c1ccccc1 | 6 | -5 | 3.8 | -24 | 0.1 | -2 | u | 3.0
CC(C)(C)c1ccc(C(=O)NNC(=O)C(=O)N2CCCCC2)cc1 | -4 | -5 | 1.4 | 11 | 2.3 | -3 | 1.2 | x
